Mtb hypoxia inh: PubChem AID 1159583. M. tuberculosis hypoxia-regulated fluorescent reporter, fluorescence. fluorescence inhibition, % (no concentration beside the values). 0.1% of 300,000 active;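 active = 35 to 45% if threefold the growth effect, above 45% if 1.5-fold the growth effect; inactive = the rest, general growth blockers included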;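 note: wells of about 50 µL received 100 nL stock; 0% = vehicle wells and 100% = reference inhibitor wells; whole bacteria with a GFP reporter of the hypoxia response; strong numbers were not always called active; many hits fall short of the cut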
Sa ugtP lethal: growth inhibition of ugtP-null S. aureus, primary screen, RN4220 ugtP deletion, OD600; growth inhibition, % (concentration not given with the values); 16 h; some inactives read as strong as hits; 0.54% of 330,000 active;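 active = z-score under -3 and OD600 up to 0.15 on both plates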;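 note: plate controls were untreated wells for no effect and antibiotic for full effect; wells of about 80 µL received 100 nL stock; the first replicate is given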
BJeLR lethal: MLPCN primary cell-based screen for lethality selective to Ras in HRASV12 cells. BJeLR (HRASV12) viability, CellTiter-Glo ATP luminescence, 48 h; reference of the scale not given here. inhibition, % (test concentration not listed). 0.17% of 300,000 active. AID 1554, 2009;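 active = replicate mean above 50%; inconclusive = above 50% but judged a plate artefact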;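 note: 50 nL library stock added to about 25 µL; numbers are from one replicate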
PrP UTR inh: inhibition of PrP 5' UTR reporter expression | cell-based PrP 5' UTR mRNA reporter, plate reader | inhibition, % (concentration not given with the values) | 0.35% of 340,000 active;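 active = every replicate at 50% or more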;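 note: 0 = median of the neutral control wells; tested in H4 reporter cells; numbers are from one replicate; inactives centre near -14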
Bead autofluor: compound fluorescence in toxin protease inhibitor counterscreen; 3.1% of 360,000 active; fluorescence intensity (no concentration beside the values); compound autofluorescence counterscreen, microsphere flow cytometry; active compounds read high; AID 624483;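 active = at least 3 SD above the mean of all compounds, about 16000 in these data; inconclusive = too few beads counted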;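 note: 100 nL of 1 mM stock went into each well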
RN4220 kill: growth inhibition of S. aureus RN4220, primary screen, OD600 | AID 1259311, 2017 | 16 h | 0.33% of 330,000 active | inhibition, % (concentration not given with the values);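 active = z-score of -3 or lower and OD600 up to 0.18 on both plates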;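 note: plate controls were untreated cells for no effect and reference antibiotic for full effect; stock transfer was 100 nL into about 80 µL; one replicate is shown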
Mtb hypoxia inh growth: second read-out of Mtb hypoxia inh, no call of its own (marks repeat the call); growth inhibition, %; measured here: M. tuberculosis growth (absorbance);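 0% = vehicle and 100% = reference antibiotic; read after six days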
* hit, by the source's call; ? = inconclusive; · = not tested or not shown.

SMILES	Mtb hypoxia inh	Mtb hypoxia inh growth	Sa ugtP lethal	BJeLR lethal	PrP UTR inh	Bead autofluor	RN4220 kill
COc1ccc(S(=O)(=O)N2CCCCC2)cc1NC(=O)Cn1cnc2ccccc2c1=O	7	-5	6	·	-6	·	2.3
N/C(=N\OC(=O)CCC1CCCC1)c1ccccn1	5	0	2	-10	-65	2886	4.1
Cc1ccc(C(=O)n2nc(-c3ccco3)nc2N)cc1	1	7	1	12	-26	3235	-7.7
Cn1c(CCNS(=O)(=O)c2ccccc2)nnc1SCc1cccnc1	-5	-5	-1	-2	-16	5595	2.4
Cc1oc(-c2ccccc2)cc1C(N)=O	·	·	-10	22	-21	3095	0.6
O=S(=O)(c1ccc(Cl)cc1)n1ccc(-c2cccc(OCc3c(F)cccc3Cl)c2)n1	25	6	20	-11	-11	3287	2.8
Cc1nccc(-c2cccc(NN=C(C#N)C(=O)c3ccccc3)c2)n1	13	10	59	·	·	·	62
CC(C)CC(NC(=O)c1ccccc1)C(=O)OCC(=O)Nc1ccc(Br)cn1 (stereo unspecified)	4	4	4	-7	-23	11436	18
Cc1cc(C)c(NC(=O)c2ccccc2CCc2ccccc2)c(C)c1	12	0	0	3	-18	6367	12
CC(=O)NC1CCCC(NC(C)=O)C1 (stereo unspecified)	13	6	3	·	-7	3553	4.2
Cc1cc(CSc2ccccc2)ccc1NC(=O)c1ccc(C)c([N+](=O)[O-])c1	4	-3	3	-5	-28	2536	4.5
COc1cc(NC(=O)CSc2ncnc3scc(-c4ccccc4)c23)c(C(=O)O)cc1OC	0	9	-8	14	-21	4333	6.6
COC(=O)c1cccc(NC(=O)c2cccc([N+](=O)[O-])c2)c1	8	5	7	-2	-13	2831	0.0
O=C(NCC(c1ccco1)N1CCc2ccccc21)c1c(F)cccc1F (stereo unspecified)	9	-1	13	-3	-4	4920	3.0
CC(C)C(=O)Nc1ccc2nn(-c3ccccc3)nc2c1	-3	11	3	-7	-13	3231	1.4
CCc1ccc(NC(=O)Cc2ccc(-n3cccc3)cc2)cc1	2	4	2	1	-22	2314	1.2
Cc1ccc(S(=O)(=O)N(C)c2c(C)ccc(S(=O)(=O)N3CCN(C=O)CC3)c2C)cc1	0	10	-3	-4	-18	2121	7.3
Cc1ccc(N/C(N)=N/c2nc(CSc3ccccn3)cc(=O)[nH]2)c(C)c1	·	·	·	5	-2	4356	·
COc1cccc(CCc2nnc(CCC(=O)NCCC3CCCCO3)o2)c1 (stereo unspecified)	2	-2	5	13	-22	5646	1.9
CC1CC(C)(C)CC2(C1)NC(=O)N(CC(=O)Nc1c(F)cccc1F)C2=O (stereo unspecified)	9	-6	5	·	8	4609	3.8
N#CC(=NO)c1nc2ccccc2[nH]1	1	4	-2	·	·	·	6.0
COc1ccc(C(=O)Nc2nc(-c3ccc([N+](=O)[O-])cc3)c(-c3ccccc3)s2)cc1	2	1	-17	1	-10	2430	12
COc1cccc(CN(C)CC(=O)Nc2c(C)cccc2C(C)C)c1	17	12	2	1	-14	4430	8.2
CCOc1ccc(NC(=O)CN(C)C(=O)CSC(C)C(=O)Nc2cc(C)on2)cc1OCC (stereo unspecified)	2	1	3	7	-14	5198	1.5
COc1cccc(/C=N/NC(=O)CNC(=O)c2cccs2)c1O	·	·	·	4	-33	4370	·
NNC(=O)c1cc(C23CC4CC(CC(C4)C2)C3)[nH]n1	0	11	-5	-2	-19	4172	4.4
COc1ccc(-c2nn(-c3ccccc3)cc2C(=O)Nc2nc(CC(C)=O)ns2)cc1	2	6	2	-7	0	2355	-5.0
CC(C)(C)NS(=O)(=O)c1ccc(CCC(=O)Nc2ccc3c(c2)OCCO3)cc1	7	9	1	-3	-21	2373	2.4
Oc1cccnc1CN1CCOCC1	8	8	2	·	-6	3887	3.4
CCCCNc1ncnc2c1cnn2-c1ccc(Cl)cc1	10	5	-9	12	-131	5179	-2.0

One compound at a time, as listed above. Order of screens: Mtb hypoxia inh, Mtb hypoxia inh growth, Sa ugtP lethal, BJeLR lethal, PrP UTR inh, Bead autofluor, RN4220 kill
Cc1ccc(C(=O)n2nc(-c3ccco3)nc2N)cc1 in the list: 1, 7, 1, 12, -26, 3235, -7.7
CCc1ccc(NC(=O)Cc2ccc(-n3cccc3)cc2)cc1 in the list: 2, 4, 2, 1, -22, 2314, 1.2
N#CC(=NO)c1nc2ccccc2[nH]1 in the list: 1, 4, -2, ·, ·, ·, 6.0

The results go on:
SMILES	Mtb hypoxia inh	Mtb hypoxia inh growth	Sa ugtP lethal	BJeLR lethal	PrP UTR inh	Bead autofluor	RN4220 kill
O=C(Nc1ccc2nc(-c3cccs3)c(-c3cccs3)nc2c1)N1CCOCC1	9	2	8	-1	-15	18209*	0.3
CCC(=O)Nc1ccc(N2CCN(Cc3ccccc3)CC2)cc1	-5	-3	10	7	-6	·	-3.2
COC(=O)C(C)Sc1nc2c(c(=O)n1-c1ccccc1)SCC2 (stereo unspecified)	7	1	2	-2	-16	3325	0.0
Cc1cc(C)c(C(=O)COC(=O)[C@H](C)Nc2ccc(C(F)(F)F)cc2[N+](=O)[O-])c(C)c1	-5	6	2	0	-20	21371*	1.0
CCCCc1[nH]c(=O)c(C#N)c2c1CSC(C)(C)C2	5	-4	4	15	-21	22475*	1.0
O=C(N/N=C/c1ccc(O)c([N+](=O)[O-])c1)c1ccncc1	·	·	·	7	-4	4764	·
Cc1noc(C)c1C(=O)NNc1ccc(C(C)C)cc1	8	-3	13	-7	2	·	1.9
COC(=O)c1cnc(Nc2cc(C)ccc2OC)c2ccccc12	8	-1	11	-3	-11	3696	-8.6
Oc1ccccc1C=NNc1ccnc(SCc2ccccc2)n1	-10	10	-2	·	·	·	-3.2
Cc1ccc(OS(=O)(=O)c2c(C)nn(C)c2Cl)c(C)c1	7	4	5	8	-22	6184	7.6
CC1(C)Cc2ccccc2C(NN=Cc2ccc(Cl)cc2)=N1	4	8	28	·	·	·	-1.2
O=C1CCCc2cc(S(=O)(=O)N3CCC(C(=O)NCc4ccccc4)CC3)ccc2N1	4	-12	10	2	-15	4784	3.1
Cc1ccc(-n2ncc(C#N)c2N)cc1	5	8	6	2	-51	?	2.1
O=C(Nc1nccs1)c1cccc(N2C(=O)C3C4C=CC(C4)C3C2=O)c1 (stereo unspecified)	·	·	·	0	8	2031	·
COc1ccc(N(CC(=O)NCc2cccc(OC)c2)S(=O)(=O)c2c(C)noc2C)cc1	·	·	·	2	-33	20088*	·
COC(=O)C(=O)/C=C(\O)c1ccc(C)cc1	·	·	·	0	-10	1967	·
Cc1ccc(S(=O)(=O)CC(=O)Nc2cccc(C)n2)cc1	1	-5	-1	-9	-7	5126	2.4
Cc1ccc(CN2CC(C(=O)Nc3cccc(S(=O)(=O)N4CCCCC4)c3)CC2=O)cc1 (stereo unspecified)	4	9	-4	-1	-10	2095	5.0
Cc1c(C(=O)NCCNc2ncc(C(F)(F)F)cc2Cl)cccc1[N+](=O)[O-]	10	8	0	-7	-16	3820	1.2
O=C(NCC(c1ccc(F)cc1)N1CCOCC1)c1cccnc1Sc1ccccc1Cl (stereo unspecified)	10	-7	17	2	-12	6024	8.3
O=C(CN1C(=O)c2cccc([N+](=O)[O-])c2C1=O)NNC(=O)c1ccc(F)cc1	8	1	0	·	-18	3617	3.1
COc1ccccc1OCCNC(=O)/C=C/c1ccc([N+](=O)[O-])cc1	13	10	19	-4	-5	2634	1.7
CCOC(=O)C1=C(N)N2C(=O)C(C)SC2=C(C(=O)OCC)C1c1cc(OC)c(OC)c(OC)c1 (stereo unspecified)	5	5	5	-7	-10	5216	8.0
CN(C)S(=O)(=O)n1cc(/C=C(\NC(=O)c2ccccc2Cl)C(=O)N2CCCC2)c2ccccc21	·	·	·	-11	-26	4752	·
CCN(CC(O)Cn1c2ccccc2c2ccccc21)S(=O)(=O)c1ccc(C)cc1 (stereo unspecified)	2	1	-36	2	-15	3868	-6.3
Cc1ccc2oc(C(=O)Nc3nnc(CC(C)C)s3)c(C)c2c1	14	-10	9	-9	-15	5988	3.5
Cc1c(C(=O)O)sc(S(=O)(=O)N2CCN(C(=O)Cc3ccc(F)cc3)CC2)c1C(=O)O	2	-2	10	·	-34	3017	5.1
CN1CCN(C(=O)CCC(=O)O)CC1	13	5	3	6	·	4574	5.0
O=C(COC(=O)COc1ccccc1[N+](=O)[O-])Nc1cccc(Br)c1	12	9	10	3	-28	2250	3.0
O=C1NC(=S)CN1c1ccccc1	5	9	4	6	-9	5415	0.1

Arranged by molecular weight (largest number first): part of the list above.
SMILES	Mtb hypoxia inh	Mtb hypoxia inh growth	Sa ugtP lethal	BJeLR lethal	PrP UTR inh	Bead autofluor	RN4220 kill
CCOC(=O)C1=C(N)N2C(=O)C(C)SC2=C(C(=O)OCC)C1c1cc(OC)c(OC)c(OC)c1 (stereo unspecified)	5	5	5	-7	-10	5216	8.0
O=C(COC(=O)COc1ccccc1[N+](=O)[O-])Nc1cccc(Br)c1	12	9	10	3	-28	2250	3.0
Cc1ccc2oc(C(=O)Nc3nnc(CC(C)C)s3)c(C)c2c1	14	-10	9	-9	-15	5988	3.5

Other structures:
SMILES	Mtb hypoxia inh	Mtb hypoxia inh growth	Sa ugtP lethal	BJeLR lethal	PrP UTR inh	Bead autofluor	RN4220 kill
Cc1nc(C)c(C(=O)C2=C(O)C(=O)N(CCCn3ccnc3)C2c2ccccc2)s1 (stereo unspecified)	·	·	5	-1	-14	2405	1.9
CCC(C)N1CCN(S(=O)(=O)c2ccc(NC(C)=O)cc2)CC1 (stereo unspecified)	10	1	8	11	-3	4316	4.5
O=c1[nH]cc(S(=O)(=O)N2CCN(c3cccc(Cl)c3)CC2)c(=O)[nH]1	8	0	23	-6	-7	?	-5.1
Cc1ccc(S(C)(=O)=O)cc1C(=O)NC(C)C1CC2CCC1C2 (stereo unspecified)	9	4	9	-14	-17	5173	1.1
COc1nc(NCCN2CCOCC2)nc(Nc2ccccc2)n1	·	·	-5	3	-52	2421	-0.8
CC(C)C(c1nnnn1C(C)(C)C)N1CCC(Cc2ccccc2)CC1 (stereo unspecified)	5	2	56	0	-33	18261*	5.8
CN(C(=O)c1ccco1)c1ccccc1C(=O)O	17	8	2	-2	-10	·	0.4
COc1ccc(-c2csc(NC(CO)c3nc4ccccc4n3Cc3ccc(C)cc3)n2)cc1 (stereo unspecified)	-3	-7	-2	-5	-12	3042	0.6
O=C(CNC(=O)c1ccccc1F)OCc1csc(-c2ccccc2)n1	11	3	15	-1	-17	2622	3.3
Cc1cc(C)c2sc(C)[n+](CCCS(=O)(=O)[O-])c2c1	0	-3	-2	0	-5	4051	-6.4
Cc1cc(=O)n2[nH]c(N)c(N=Nc3ccccc3)c2n1	4	5	-4	-8	-18	8273	6.3
O=C(COc1ccc(/C=N/NC(=O)c2ccccc2Br)cc1)Nc1ccccc1	·	·	·	-1	-17	3258	·
Cc1cc(C)cc(C(=O)NCCCc2ccccc2)c1	7	7	17	7	-1	4160	1.6
COc1ccc2c(c1)O/C(=C\c1ccco1)C2=O	14	5	2	-4	-62	6256	8.2
COc1cc(C(=O)N/N=C(\C)c2ccccn2)cc(OC)c1OC	·	·	·	2	11	6492	·
CC(=NNC(N)=S)c1ccc(-n2ccnc2)cc1	·	·	9	·	·	·	11
COC(=O)c1cnn(-c2ccc(F)cc2F)c1/C=N/NC(=S)NC(C)(C)C	·	·	·	-10	-20	3848	·
CC(C)CCN1C(=O)c2ccc(C(=O)Nc3ccccn3)cc2C1=O	-9	-8	-7	-6	-26	5890	-1.3
N/C(Cc1ccc(Cl)cc1)=N\OC(=O)c1ccccc1	·	·	7	2	-8	4345	3.8
COCCNC(=S)NN=C(C)c1cccc(OC)c1	-4	3	1	·	·	·	1.8
CCCN(Cc1cc2ccc(C)cc2[nH]c1=O)C(=O)c1ccccn1	·	·	-1	-3	-7	2617	2.6
COc1ccccc1NC(=O)CN(C)S(=O)(=O)c1cccc2cccnc12	3	-5	2	-2	-4	5180	-0.5
Cc1ccc(C(=O)NCc2ccncc2)cc1S(=O)(=O)N1CCOCC1	3	1	6	5	-10	5140	2.3
Cc1cccc2sc(NC(=O)C3CCN(S(=O)(=O)c4cc([N+](=O)[O-])ccc4Cl)CC3)nc12	16	19	-4	2	-11	1921	-3.7
CC12CCC(C(=O)N(CC3CO3)C1=O)C2(C)C (stereo unspecified)	4	1	3	10	-22	4951	6.6
Cn1cnc(S(=O)(=O)NCc2ccc(Br)cc2)c1	-5	-1	2	-4	-10	5636	-0.4
COc1cccc(OCc2cc(C=Nn3cncn3)ccc2OC)c1	13	1	-4	·	·	·	0.8
